CSC inhib: blocks cancer stem cells. cancer stem cell-like cells viability, luminescence. inhibition, % at 7.5 µM. actives 1.1% (n = 300,000). AID 2717;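 active means mean at 75% or more and at least half the replicates too; tested in HMLE shEcad cells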;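 further: 0% = median of negative and 100% = median of positive control wells; the first replicate is given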
eIF4H FP inh: inhibitors of RNA binding by human eIF4H; Q15056; eIF4H fluorescence polarization binding assay; inhibition, % at 35 µM; actives 0.94% (n = 290,000);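 active means 50% or more with normal probe brightness, or confirmed in later tests; about a fifth of its hits are not listed in these tables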;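 further: calls also rest on retests at 20 µM and on dose response follow-up; 0% = protein and probe with vehicle and 100% = probe without protein; strong numbers were not always called active; many hits fall short of the cut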
HIV Env fusion: blocks HIV Env-driven cell-cell fusion | HeLa-JRFL Env/CEM21 cell fusion, luciferase | inhibition, % at 12.3 µM | actives 1.1% (n = 360,000);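 active means mean replicate inhibition score of at least 50 and every replicate individually at or above 50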;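 further: 0% = plate neutral controls and 100% = maraviroc near 300 nM; one replicate is shown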
Rce1 inh: inhibitors of yeast Ras-converting enzyme; Q03530; yeast membranes, quenched prenylated peptide cleavage fluorescence; calls only; actives 0.27% (n = 290,000); AID 2563;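 active means fall in fluorescence gain of 50% or more versus controls, with final raw signal at or below 3038400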;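 further: plate controls were neutral control wells for no effect and wells lacking membranes for full effect; tested at 10 µM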
Target sequence (Q03530 whole entry, looked up): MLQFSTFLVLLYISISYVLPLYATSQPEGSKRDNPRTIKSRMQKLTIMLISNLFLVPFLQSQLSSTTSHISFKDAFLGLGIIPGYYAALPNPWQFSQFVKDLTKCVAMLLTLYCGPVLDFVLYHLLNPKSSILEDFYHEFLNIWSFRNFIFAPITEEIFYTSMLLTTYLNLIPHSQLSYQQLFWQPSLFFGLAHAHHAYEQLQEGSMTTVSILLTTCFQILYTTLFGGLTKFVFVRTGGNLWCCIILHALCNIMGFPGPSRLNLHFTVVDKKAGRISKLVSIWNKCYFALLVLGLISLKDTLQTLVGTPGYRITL
PABP polyA inh: PABP-poly(A) binding inhibition. PABP-poly(A) RNA binding, fluorescence polarization. P11940. inhibition, % at 35 µM. actives 1% (n = 290,000);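 active means 50% or more with normal probe brightness, or confirmed in later tests; about a fifth of its hits are not listed in these tables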;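 further: calls also rest on retests at 20 µM and on dose response follow-up; controls were probe without protein and protein plus probe with vehicle; some compounds called inactive have numbers as strong as hits; many hits fall short of the cut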
UUG fidelity: alters start codon recognition fidelity in yeast. AID 602363. S. cerevisiae UUG-firefly luciferase reporter, luminescence/redox ratio. activity score, % at 18.7 µM. actives 0.13% (n = 350,000);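 active means replicate mean at a twofold rise or more, about +100% in these data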;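 further: firefly luciferase made from a UUG start codon reports start codon fidelity; reporter light over untreated wells divided by growth signal over untreated wells; some hits fall short of that in this replicate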
MT1-MMP act inh: MT1-MMP (human) activation inhibition | GFP/RFP ratio change, % at 20 µM | actives 0.061% (n = 360,000) | HT1080 RFP-PRO-GFP cells, GFP/RFP ratio fluorescence, overnight; percent of plate control window, DMSO zero | P50281 | AID 651647;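 active means GFP/RFP ratio change of at least 30% with cell ATP level not reduced by more than half and red fluorescence within 50% of control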; further: strong numbers were not always called active
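Assay system: HT1080 RFP-PRO-GFP cells. Benchmarks: DMSO vehicle wells and RFP-L50D-GFP reporter cell wells. Times: overnight cell settling, then overnight compound exposure, 37 °C, 5% CO2. Compound: 20 µM single dose, 1% DMSO. Read-out basis: GFP/RFP fluorescence ratio.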
MT1-MMP act inh RFP: second read-out of MT1-MMP act inh, no call of its own (marks repeat the call); RFP signal change, %; measured here: RFP expression control read;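 0 = vehicle wells; hits needed this value within 50% of zero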
The depositor's hits bear a star; i = inactive; . = not tested or not shown. This is a subset. The share of hits here may be higher or lower than overall.

SMILES	CSC inhib	eIF4H FP inh	HIV Env fusion	Rce1 inh	PABP polyA inh	UUG fidelity	MT1-MMP act inh	MT1-MMP act inh RFP
COc1ccc(-c2cc(C(F)(F)F)c(C#N)c(SCC(=O)O)n2)cc1	1.9	6.0	7.5	.	11.8	.	6.8	1.0
O=[N+]([O-])c1ccc(CP(=O)(c2ccccc2)c2ccccc2)cc1	80.6*	1.9	9.5	i	-7.6	1.8	-4.2	0.7
COc1ccc(C(=O)Nc2ccccc2C(=O)NCCN2CCOCC2)cc1	-5.0	3.2	.	i	-10.4	0.3	1.6	1.1
COc1ccc(N=C2CCS(=O)(=O)c3sccc32)cc1	13.5	2.0	-2.3	i	-4.4	.	0.2	1.5
OC(COc1ccc(C2C=CCC2)cc1)CN1CCCCC1 (stereo not given)	59.8	5.5	.	i	-3.1	12.3	8.3	1.3
O=C(O)CC1(CC(=O)NCc2ccc(-c3cccs3)cc2)CCCCC1	9.7	-8.2	-1.0	i	-6.0	-18.4	2.6	1.3
CCC1(C(=O)O)NC(c2cccc(OC)c2O)C2C(=O)N(c3ccccc3)C(=O)C21 (stereo not given)	-11.2	2.5	10.6	i	-13.1	-17.5	0.7	5.8
COC(=O)c1nnn(-c2cccc(Cl)c2)c1C(=O)OC	-11.1	-4.0	-1.2	i	-4.9	.	4.4	0.2
COC(=O)Cn1c(CN2CCc3ccccc3C2)nc2c1c(=O)n(C)c(=O)n2C	5.7	1.7	33.9	i	-3.8	11.1	-6.9	-3.8
COC(=O)CSc1nc2ncccc2[nH]1	-0.4	-4.8	-25.6	i	12.5	-12.8	-3.6	5.1
CC(=O)c1cccc(NC(=O)c2cccc3c(-c4cccc(C(N)=O)c4)coc23)c1	.	.	-226.3	.	.	-11.1	-7.0	-14.0
Cc1cccc(C(=O)NCCCn2ccnc2)c1C	4.7	-4.6	-4.1	i	1.3	-25.7	-0.7	-0.1
CC1(C)OC(=O)C(=CNc2ccc(F)cc2)C(=O)O1	7.9	-5.3	13.2	i	-12.3	-11.0	-3.9	0.7
Cc1ccc(C(=O)NC(NC(=S)Nc2ccc(S(N)(=O)=O)cc2)C(Cl)(Cl)Cl)cc1 (stereo not given)	5.5	-16.0	-84.7	i	-2.8	-14.6	1.9	-2.0
O=C(Nc1cccnc1)c1cccc(-c2cc3ccccc3oc2=O)c1	-7.9	-22.0	4.0	i	-29.6	.	2.1	6.6
COc1ccc(Cl)cc1C(=O)Nc1ccc2nc3n(c(=O)c2c1)CCCC3	-5.0	2.7	14.2	i	9.7	-7.7	7.9	3.0
COC(=O)C1CCN(C(=O)c2cc3ccccc3oc2=O)CC1	-9.9	-10.0	-57.2	i	-11.4	4.4	0.0	5.3
COc1cc(C(=O)OCc2cc(=O)n3ccsc3n2)ccc1OC(C)C	-20.6	.	.	.	.	-6.7	-7.0	-2.1
COc1ccc(Cn2c(=S)[nH]c3ccccc32)cc1	-11.6	15.5	-0.7	i	35.6	-23.0	1.0	0.7
N/C(=N\c1nc(CSc2ccc(Cl)cc2)cc(=O)[nH]1)Nc1cccc2ccccc12	-6.2	6.1	.	i	-8.0	-13.5	-0.5	-6.2
CCOC(=O)c1cc(CC)sc1NC(=O)CN1CCN(C(=O)c2ccco2)CC1	-1.6	6.2	35.1	i	16.1	-0.2	-3.9	-4.9
CC(=O)Nc1ccc(S(=O)(=O)N2CCC(NC(=O)c3ccco3)CC2)cc1	-2.8	-5.9	-111.0	i	7.0	-3.8	1.7	1.8
COc1cccc(N2[C@@H](CC(C)=O)c3cc(C(F)(F)F)ccc3S2(=O)=O)c1	-5.2	.	-14.0	i	.	16.7	-0.3	-1.0
Cc1ccc(CN2CCN(/N=C/C(Br)=C\c3ccccc3)CC2)cc1	23.1	2.5	24.3	i	10.1	-24.1	0.4	-5.6
Cc1ccc(-c2cccc(OC(=O)c3ccccc3F)c2)cc1	5.7	2.2	-12.0	i	3.0	-13.7	0.7	4.6

Given with two lines to a compound: part of the list above.
Values in the order: CSC inhib	eIF4H FP inh	HIV Env fusion	Rce1 inh	PABP polyA inh	UUG fidelity	MT1-MMP act inh	MT1-MMP act inh RFP
COc1ccc(-c2cc(C(F)(F)F)c(C#N)c(SCC(=O)O)n2)cc1
→ 1.9	6.0	7.5	.	11.8	.	6.8	1.0
O=[N+]([O-])c1ccc(CP(=O)(c2ccccc2)c2ccccc2)cc1
→ 80.6*	1.9	9.5	i	-7.6	1.8	-4.2	0.7
COc1ccc(C(=O)Nc2ccccc2C(=O)NCCN2CCOCC2)cc1
→ -5.0	3.2	.	i	-10.4	0.3	1.6	1.1
COc1ccc(N=C2CCS(=O)(=O)c3sccc32)cc1
→ 13.5	2.0	-2.3	i	-4.4	.	0.2	1.5
OC(COc1ccc(C2C=CCC2)cc1)CN1CCCCC1 (stereo not given)
→ 59.8	5.5	.	i	-3.1	12.3	8.3	1.3
O=C(O)CC1(CC(=O)NCc2ccc(-c3cccs3)cc2)CCCCC1
→ 9.7	-8.2	-1.0	i	-6.0	-18.4	2.6	1.3
CCC1(C(=O)O)NC(c2cccc(OC)c2O)C2C(=O)N(c3ccccc3)C(=O)C21 (stereo not given)
→ -11.2	2.5	10.6	i	-13.1	-17.5	0.7	5.8
COC(=O)c1nnn(-c2cccc(Cl)c2)c1C(=O)OC
→ -11.1	-4.0	-1.2	i	-4.9	.	4.4	0.2
COC(=O)Cn1c(CN2CCc3ccccc3C2)nc2c1c(=O)n(C)c(=O)n2C
→ 5.7	1.7	33.9	i	-3.8	11.1	-6.9	-3.8
COC(=O)CSc1nc2ncccc2[nH]1
→ -0.4	-4.8	-25.6	i	12.5	-12.8	-3.6	5.1
CC(=O)c1cccc(NC(=O)c2cccc3c(-c4cccc(C(N)=O)c4)coc23)c1
→ .	.	-226.3	.	.	-11.1	-7.0	-14.0

Other compounds
SMILES	CSC inhib	eIF4H FP inh	HIV Env fusion	Rce1 inh	PABP polyA inh	UUG fidelity	MT1-MMP act inh	MT1-MMP act inh RFP
CCc1ccc(CNC(=O)CCn2ccc3cc(S(=O)(=O)N4CCCC4)ccc32)cc1	-2.9	-3.5	31.4	i	3.4	6.6	3.6	-2.4
S=c1[nH]nc(-c2ccncc2)n1/N=C/C=C/c1ccco1	-6.1	96.5*	23.7	i	94.0*	.	-2.0	-1.8
O=C(COc1ccc2ccc(=O)oc2c1)Nc1ccc2c(c1)OCCO2	2.0	.	2.6	i	.	-11.6	1.1	7.0
O=C(N/N=C/c1ccc(OC(=O)c2ccccc2Cl)cc1)c1cc(O)cc(O)c1	10.9	91.6*	-7.9	i	91.3*	-19.4	4.8	3.5
COc1ccc(S(=O)(=O)Nc2ccccn2)cc1OC	-15.3	1.3	.	i	11.5	-6.4	-3.9	2.3
COc1ccc(/C=C/C(=O)c2cc(F)ccc2OC(=O)c2ccccc2C)cc1OC	48.6	-5.8	-71.5	i	1.4	-8.5	4.0	-13.3
COc1ccccc1NS(=O)(=O)c1cccc(C(=O)NN=C2CCCC2)c1	-10.4	-4.8	0.0	i	-5.0	-15.9	-0.3	0.9
Cc1ccc(S(=O)(=O)N(C)C)cc1NC(=O)COC(=O)Cc1n[nH]c(=O)c2ccccc12	.	-9.7	-3.7	i	-9.7	-9.4	0.1	2.9
Cc1ccc(CNS(=O)(=O)CCNC(=O)c2ccccc2)cc1	3.1	.	1.0	i	.	-19.8	3.2	2.9
CC(NC(=O)C1C(=O)N(CCO)C2(C)CC1c1ccccc1O2)c1ccccc1 (stereo not given)	4.3	0.7	-85.5	i	7.3	-9.3	-2.3	3.6
CC(C)C1C(=O)N(Cc2cn(CCC3OCCO3)nn2)CCS(=O)(=O)N1Cc1ccc(-c2ccccc2C(F)(F)F)cc1 (stereo not given)	.	.	6.8	.	.	-14.6	3.7	-2.0
CN(CCO)c1ncnc2c1sc1nc(N3CCOCC3)c3c(c12)CCC3	-15.6	-11.0	11.7	i	-17.2	.	10.8	0.2
Cc1ccc(-c2nnc(/C=C/c3ccccc3)o2)cc1	10.4	-5.8	-30.0	i	-7.0	.	3.5	5.7
COCCNC(=O)CCC1CCN(Cc2cccc(-c3ccc(C)o3)c2)CC1	-6.2	-3.5	6.9	i	-3.6	12.9	0.3	3.9
CCCOC(=O)c1ccc(NC(=O)C(=O)NCCN(CC)CC)cc1	-12.1	-6.1	5.2	i	0.8	-14.9	2.3	9.2
O=C(O)c1ccc2c(c1)C(=O)N(NC(=O)c1ccc(O)cc1)C2=O	.	-0.8	2.0	i	0.3	.	2.3	5.8
O=C1CCN(C(=O)Nc2ccccc2Cl)N1	-25.2	-14.6	23.0	i	6.2	-20.8	11.4	8.4
CN(C)C(=O)/C(=C\c1ccc(-c2cccc([N+](=O)[O-])c2)o1)NC(=O)c1ccccc1	5.3	0.6	4.9	i	1.2	.	-1.6	-2.6
O=C(O)CCC(=O)N1CCCC1	-11.8	2.6	-30.0	i	-4.4	.	2.5	7.4
Cc1nn(-c2ccc(N3CCCCC3)nn2)c(C)c1CCC(=O)Nc1cccc(F)c1	-16.6	-2.5	-66.2	i	13.0	-5.1	1.6	-0.3
CC(C)OC(=O)/C(C#N)=C/c1cn(C)c2ccccc12	2.6	-8.3	2.9	i	4.4	.	-1.3	-2.4
CCOC(=O)CNC(=O)CSc1nnc(-c2cccc(OC)c2)n1CC	-10.5	-3.5	.	i	0.4	9.0	-2.5	0.9
COc1ccc(CC(=O)NCc2n[nH]c(=S)n2-c2ccccc2)cc1	2.4	15.9	-59.0	i	9.6	-22.2	3.7	7.6
Nc1nnn(-c2ccccc2)c1-c1ccccc1	-3.5	.	13.3	i	.	-5.2	6.5	2.0
CCOC(=O)CN1C(=O)N[C@@H](c2ccccc2)[C@H](C(C)=O)[C@H]1C	4.2	.	-26.8	i	.	-9.2	0.7	4.5
The listing continues.
SMILES	CSC inhib	eIF4H FP inh	HIV Env fusion	Rce1 inh	PABP polyA inh	UUG fidelity	MT1-MMP act inh	MT1-MMP act inh RFP
CCCN(CCC)CCCNC(=O)c1cn(-c2ccc(OC)cc2)c(=O)c2ccccc12	-10.6	8.1	-8.6	i	12.5	8.3	-3.4	3.0
CCC(=O)N1CCc2cc(S(=O)(=O)NC(Cc3ccccc3)C(=O)O)ccc21 (stereo not given)	-7.4	4.1	-2.4	i	0.3	-17.8	-2.5	4.5
O=C(Cn1ccc2ccccc2c1=O)N1CCN(c2cccc(Cl)c2)CC1	-5.9	-3.2	.	i	-12.3	-13.5	0.4	-1.3
CC(O)c1cc2c(cc1NC(=O)c1cnn3c1NC(c1ccco1)CC3C(F)(F)F)OCO2 (stereo not given)	-7.5	-10.0	.	i	-12.1	-18.0	2.6	6.8
Cc1ccnc2nc(C(=O)Nc3nnc(-c4ccc(Cl)cc4)o3)nn12	6.0	36.1	-7.6	i	-0.5	-20.2	2.6	-1.0
O=C(NCCc1nc2ccccc2[nH]1)c1ccc(Br)o1	-11.2	-1.8	-10.1	.	2.8	2.2	1.0	0.8
c1ccc(CSc2nnnn2-c2ccc3c(c2)OCCO3)nc1	2.3	-12.7	.	i	3.1	-18.4	0.4	-5.8
COc1ccc(CNC(=O)C(c2ccco2)N(C(=O)c2snc(C(N)=O)c2N)c2ccccc2OC)cc1 (stereo not given)	.	-11.0	15.9	i	0.1	-8.9	-3.0	0.7
O=C(CSc1nc2ccccc2c(=O)[nH]1)Nc1ccccc1C(F)(F)F	12.1	-13.8	3.7	i	9.1	-2.7	-10.3	-5.0

Compound activity from PubChem.
